Assay outcomes: PubChem, Johns Hopkins Ion Channel Center
KCNQ2 enhance: potentiators of rat KCNQ2 potassium channel | 0.54% of 310,000 active | AID 2239, 2010 | B-score at 10 µM | CHO-K1 KCNQ2, FluxOR thallium flux fluorescence; stronger effect = higher value | Potassium voltage-gated channel subfamily KQT member 2 (Rattus norvegicus), O88943;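 active = fluorescence ratio B-score at least 3 SD of library B-scores, with initial fluorescence B-score within 3 SD, cut at about 5.3 in these data; same plate scores as AID 2156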;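 also: B-score of peak minus minimum over baseline fluorescence ratio after K+ and Tl+ stimulus; positive B-score means potentiation of KCNQ2 with more thallium influx and brighter signal; only the inactives scoring about 0 or higher are listed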
Target sequence (O88943 whole entry, looked up): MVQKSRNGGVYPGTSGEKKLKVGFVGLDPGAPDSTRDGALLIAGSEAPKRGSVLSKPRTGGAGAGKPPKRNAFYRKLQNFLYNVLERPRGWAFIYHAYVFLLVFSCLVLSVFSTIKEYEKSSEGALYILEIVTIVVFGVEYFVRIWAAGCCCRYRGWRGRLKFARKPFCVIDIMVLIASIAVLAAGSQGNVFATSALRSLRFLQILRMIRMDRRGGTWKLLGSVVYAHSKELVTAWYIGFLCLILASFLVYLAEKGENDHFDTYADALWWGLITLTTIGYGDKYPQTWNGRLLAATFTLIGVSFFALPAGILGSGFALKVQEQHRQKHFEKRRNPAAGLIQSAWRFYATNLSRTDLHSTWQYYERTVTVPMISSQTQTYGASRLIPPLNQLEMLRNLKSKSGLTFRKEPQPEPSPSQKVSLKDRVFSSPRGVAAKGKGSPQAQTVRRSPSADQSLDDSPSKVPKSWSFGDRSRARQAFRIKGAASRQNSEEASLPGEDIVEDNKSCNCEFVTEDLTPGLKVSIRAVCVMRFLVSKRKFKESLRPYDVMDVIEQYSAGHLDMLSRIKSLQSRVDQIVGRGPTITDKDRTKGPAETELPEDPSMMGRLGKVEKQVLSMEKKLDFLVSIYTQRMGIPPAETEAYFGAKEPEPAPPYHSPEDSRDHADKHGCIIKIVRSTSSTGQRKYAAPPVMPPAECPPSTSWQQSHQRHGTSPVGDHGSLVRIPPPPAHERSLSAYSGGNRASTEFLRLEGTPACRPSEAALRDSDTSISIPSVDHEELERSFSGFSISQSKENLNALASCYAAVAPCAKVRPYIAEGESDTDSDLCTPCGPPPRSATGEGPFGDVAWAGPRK
KCNQ2 enhance baseline: recorded beside KCNQ2 enhance, whose call it bears; B-score; compound at 10 µM; measured here: initial fluorescence intensity artifact check;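 brightness before thallium and not channel activity; 0 = typical well and far values either way flag optical interference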
* hit, by the source's call. These rows are one share of the data; count on the stated rates, not on these rows.

SMILES	KCNQ2 enhance	KCNQ2 enhance baseline
COc1ccc(/C=N/N=C/c2c[nH]c(=O)c(C#N)c2Nc2ccccc2)cc1	0.66	0.8
Cc1ccc(-c2ccc(=O)n(CCC(=O)NCc3ccccn3)n2)cc1	0.52	0.04
CN(c1ccccc1)S(=O)(=O)c1ccc(Cl)c(C(=O)OCC(N)=O)c1	2.1	-1.8
CSCC(=O)NC1CCCc2c1cnn2-c1ccc(C)c(C)c1 (centres undefined)	0.36	0.03
CC(=O)Nc1cnc(NC(=O)c2cccc(F)c2)cc1C	1	-0.28
O=c1cc(-c2ccccc2)oc2cc(O)cc(O)c12	0.03	1.5
COc1cc(NC(=O)C2CCN(S(=O)(=O)c3cccnc3)CC2)cc(OC)c1OC	2	-0.87
CCc1ccc(NC(=O)C(=O)NCC2CCCN2S(=O)(=O)c2ccccc2)cc1 (centres undefined)	2	-2
Cc1cc([N+](=O)[O-])ccc1NC(=O)CSc1nccc(=O)[nH]1	2.4	-1.3
Cc1cc(SCc2cccc(Cl)c2)nc(=O)[nH]1	3.2	0.28
O=C(Nc1cccc(F)c1)c1ccc(Br)o1	0.43	2
CCCCCCCCS(=O)c1sc2nc3c(cc2c1N)CCCC3 (centres undefined)	0.15	-0.43
CC(C)(C)C1CCC(=NNC(=O)c2ccc(Br)o2)CC1 (centres undefined)	0.53	-0.01
CCn1c(CC(=O)Nc2ccccc2F)nnc1SCC(=O)Nc1nncs1	0.24	-2.5
COc1cccc(C(=O)CSc2nnc(CNc3nc(-c4ccccc4)cs3)n2C)c1	0.53	2
O=C(CCCc1ccccc1)Nc1cccc2c1CCCC2	4.9	-0.09
Cc1ccc2nc(CSc3nc(C)ccc3C#N)[nH]c2c1	0.63	-1.6
CCN(CC)c1ccc(NC(=O)c2c(OC)cccc2OC)c(C)c1	0.34	1.1
CC1(C)Cc2cccc(C(=O)NCc3ccco3)c2O1	1.6	-1.1
CCn1cc(S(=O)(=O)c2ccc(C)cc2)c(=O)c2cc(OC)ccc21	0.8	0.23
COc1cccc(C2CC(c3c(F)cccc3Cl)n3nc(N)nc3N2)c1 (centres undefined)	0.75	0.23
O=Cc1ccc(C(=O)OCC(=O)N2CCCC2)cc1	0.85	0.44
COc1ccc(-c2cc(C(F)(F)F)n3ncc(C(=O)O)c3n2)cc1OC	0.2	-0.01
COc1ccc(OCCC(=O)N2CCCCC2)cc1	2.3	1.4
Cc1cc(-n2nc(C)cc2C)n2nc(C)c(-c3ccc(Cl)cc3)c2n1	0.09	-0.97
SMILES	KCNQ2 enhance	KCNQ2 enhance baseline
O=C(NC1CCN(Cc2ccccc2)CC1)c1c(Cl)cccc1Cl	1.1	0.14
CCOc1ccc2nc(NCCNC(=O)C(C)C)c(C)cc2c1	2.5	-0.13
Cn1c(SCC(=O)c2ccc(F)cc2)nnc1-c1cccnc1	2.3	-1.7
Cn1nccc1C(=O)Nc1ccc(Cl)cc1	1.7	-0.3
CC(Oc1ccc(F)cc1F)C(=O)/C=C/N(C)C (centres undefined)	0.02	-0.06
O=C(c1cc2cc([N+](=O)[O-])ccc2oc1=O)N1CCN(c2ncccn2)CC1	0.01	-0.84
CC1CCN(S(=O)(=O)c2cccc(C(=O)N(C)C3(C)CCS(=O)(=O)C3)c2)CC1 (centres undefined)	1.2	0.57
CNC(=O)c1cc2c(s1)-c1ccccc1CC2	0.74	-1.2
Cc1noc(C)c1S(=O)(=O)N1CCN(c2ccccc2)CC1	0.12	0.06
CCOC(=O)c1[nH]c2ccc(OCC)cc2c1NC(=O)CN1CCN(c2ccccn2)CC1	0.05	0
Cc1cccc(C)c1Nc1c(-c2ccccc2O)nc2ncccn12	0.09	0
CCCCCCn1nc(C(=O)OCC(=O)NC2CCS(=O)(=O)C2)c2ccccc2c1=O (centres undefined)	1.9	-0.72
O=C(Cn1cnc2ccccc2c1=O)Nc1cccc(S(=O)(=O)N2CCCCC2)c1	0.76	0.16
CCCc1cc(=O)[nH]c(/N=C(\N)Nc2ccccc2)n1	0.02	2.4
Cc1ccc(SCC(=O)NCc2ccccc2C)cc1	0.09	-0.49
COC(=O)c1cccc(NC(=O)c2ccc3c(c2)C(=O)N(Cc2cccnc2)C3=O)c1	0.64	1.1
Cn1c(SCC(=O)Nc2ccccc2)nc2c([nH]c3ccccc32)c1=O	0.22	1.6
Cc1ccc(C(=O)OCC(=O)Nc2cccc(S(=O)(=O)NC3=NCCCCC3)c2)c(C)c1	1.7	0.86
O=C(Nc1nnc(-c2ccc(Cl)s2)o1)C1CCCCC1	0.24	0.04
O=[N+]([O-])c1ccc(S(=O)(=O)CC(CN2CCOCC2)N2CCOCC2)cc1 (centres undefined)	1.3	2
C/C(=C/C(=O)Nc1cccc(F)c1)N1CCCC1	0.01	-1.7
CCc1noc(C)c1C(=O)Nc1ncc(C)s1	1.2	-1.2
COc1ccc(CNC(=O)CCc2c(C)nc3ncnn3c2C)cc1	0.97	0.11
O=C(/C=C/c1ccccc1)Nc1cccnc1Oc1ccccc1F	0.6	0.41
Cc1cc(C)cc(CC2CC(=O)N(c3cc(C)on3)C2=O)c1 (centres undefined)	2.2	1
SMILES	KCNQ2 enhance	KCNQ2 enhance baseline
CCCCn1c(Cc2ccccc2)n[nH]c1=S	0.54	-0.42
COC(=O)[C@@H](NC(=O)NC1CCCCC1C)C(C)C (some centres undefined)	1.2	0.47
CC1(C)Cc2ccccc2-c2nc(NCCO)n(-c3ccccc3)c(=O)c21	0.82	1.1
CCOC(=O)C1CCN(C(=O)CN(c2ccc3c(c2)OCO3)S(C)(=O)=O)CC1	0.12	-0.08
COc1cc(OC)c(OC)cc1CN1CCN(S(=O)(=O)c2ccc(NC(C)=O)cc2)CC1	0.01	0.76
CCOc1ccc(C(=O)OCC(=O)Nc2nc(OC)cc(OC)n2)cc1OCC	0.47	0.71
N=c1c(C(=O)NCC2CCCO2)cc2c(=O)n3ccccc3nc2n1C1CCCC1 (centres undefined)	2	0.56
CCC1CCCCN1Cc1nc2c(c(=O)n(C)c(=O)n2C)n1CC(C)C (centres undefined)	1.4	-2.7
CCOc1ccccc1NC(=O)N1CCC(C(=O)c2ccc(F)cc2)CC1	1.1	2.3
O=C(/C=C/c1ccccc1)Nc1cccnc1Cl	1.1	-0.55
CN(CCc1ccccn1)C(=O)CCC1CCCN(C(=O)c2cscn2)C1 (centres undefined)	0.63	-1
CCc1ccccc1NC(=O)CCc1c(C)nc(SC)nc1C	0.59	-0.83
CC(=O)c1ccc(NC(=O)Oc2ccccc2)cc1	0.54	-1.6
COc1ccc(OC)c(S(=O)(=O)NCc2nc3nc(C)cc(C)n3n2)c1	0.27	0.03
Cc1ccc(Cl)cc1NS(=O)(=O)c1ccc(-n2cccn2)cc1	1.2	-0.95
O=C(NCc1ccc2c(c1)OCO2)c1ccc(-n2cnnn2)cc1	1.7	-1.5
COc1ccccc1NC(=O)C1=C(C)NC2=C(C(=O)CCC2)C1c1ccc2c(c1)OCO2 (centres undefined)	0.11	-0.31
O=C(O)CCC(=O)c1c[nH]c2ccccc12	0.18	-0.78
CCC(C)Sc1nc2c(c(=O)[nH]c(=O)n2C)n1C (centres undefined)	0.78	-0.21
COc1ccc(OC)c(/C=C/C(=O)N(C)CC(=O)Nc2cc(C)ccc2C)c1	0.31	-1
COC(=O)c1c(/N=C/NOCc2ccc(Cl)cc2)sc2c1CCN(c1ncc(C(F)(F)F)cc1Cl)C2	0.93	-0.09
COc1cc(/C=N/NC(=O)C2c3ccccc3Oc3ccccc32)ccc1O	0.16	0.31
COCCNc1nc2c(S(=O)(=O)c3cc(C)ccc3C)nnn2c2ccccc12	1.9	-0.16
CCN(CC)CCNC(=O)c1sc2nc(-c3ccccc3)cn2c1C	0.63	-2.5
CCOC(=O)CSc1nc2ccc(N)cc2s1	0.35	-1.3

Some of these compounds in order of the KCNQ2 enhance baseline value, rising:
SMILES	KCNQ2 enhance	KCNQ2 enhance baseline
O=C(NCc1ccc2c(c1)OCO2)c1ccc(-n2cnnn2)cc1	1.7	-1.5
CCOC(=O)CSc1nc2ccc(N)cc2s1	0.35	-1.3
O=C(O)CCC(=O)c1c[nH]c2ccccc12	0.18	-0.78
COC(=O)c1c(/N=C/NOCc2ccc(Cl)cc2)sc2c1CCN(c1ncc(C(F)(F)F)cc1Cl)C2	0.93	-0.09
COc1cc(/C=N/NC(=O)C2c3ccccc3Oc3ccccc32)ccc1O	0.16	0.31
COC(=O)[C@@H](NC(=O)NC1CCCCC1C)C(C)C (some centres undefined)	1.2	0.47

Further structures.
SMILES	KCNQ2 enhance	KCNQ2 enhance baseline
O=C(CCn1c(SCC(=O)c2ccccc2)nc2ccccc2c1=O)NCc1ccc(F)cc1	0.62	-0.26
O=C(Cc1cccc(F)c1F)NC1CCCN(Cc2ccc(Cl)cc2)C1 (centres undefined)	6.2*	-0.66*
Cc1nc(CNC(=O)CC2C(=O)NCCN2Cc2ccoc2)nc2c1CCCC2 (centres undefined)	0.53	0.28
Cc1oc(-c2cccc(C(F)(F)F)c2)nc1CN1CCC[C@H]1CO	0.64	0.73
COc1ccc(-c2nc(CS(=O)CC(=O)NCc3cccnc3)c(C)o2)cc1OC (centres undefined)	0.97	1.1
CC(=O)Nc1ccc(NC(=O)C(C)n2nc(C)c([N+](=O)[O-])c2C)cc1 (centres undefined)	0.62	1.4
Cn1c(=O)cc(OCC(=O)NCCCN2CCN(Cc3ccccc3)CC2)c2ccccc21	0.04	-0.01
Cc1ccc(C(=O)Nc2cccc(C(=O)NC3CCCC3)c2)cc1	0.27	-0.02
COc1ccc(N=C2NC(=O)CS2)c([N+](=O)[O-])c1	1.6	0.11
COc1ccc2c(c1)N(C)/C(=C1/SC(=S)N(NC(C)=O)C1=O)S2	0.41	-2
O=C(/C=C/c1ccccc1Cl)Nc1ccc(S(=O)(=O)Nc2ncccn2)cc1	1.2	0.92
O=C(Nc1ccccc1Cl)N1CCN(Cc2ccc3c(c2)OCO3)CC1	1.6	0.03
Cc1cc(C)cc(N(CC(=O)NC2CCCC2)S(=O)(=O)c2c(C)[nH]c(=O)[nH]c2=O)c1	0.25	0.78
CN(CC(=O)Nc1ccc(F)c(F)c1F)C(=O)c1ccc(=O)[nH]c1	1.1	0.8
Cc1[nH]c2ccccc2c1/C=N/NC(=O)CCC(=O)Nc1ccccc1	0.17	-0.73
Cc1cc(N2CCOCC2)n2cc(-c3ccccc3)nc2n1	0.33	0.05
COc1ccc(N2CCN(CC(O)COc3ccc(C)c(C)c3)CC2)cc1 (centres undefined)	0.21	0.84
COc1ccc(C2CC(=O)C3=C(C2)Nc2ncnn2C3c2ccccc2)cc1 (centres undefined)	0.7	-0.44
NCCC(=O)N1c2ccccc2Sc2ccccc21	0.55	-0.74
CCOC(=O)c1cc(NC(=O)CN2CCCC2)cc(C(=O)OCC)c1	1.5	0.02
COc1ccc(S(=O)(=O)N2CCC3(CC2)CC(=O)c2ccccc2O3)cc1OC	1.1	-0.36
CC(C)NC(=O)c1cnn2c1NC(c1cccs1)CC2C(F)(F)F (centres undefined)	0.29	1.6
O=C(Oc1ccccc1)c1ccc2c(c1)C(=O)N(Cc1ccncc1)C2=O	0.03	-0.29
CCCCN(CC)CCNC(=O)c1cc2cc3ccc(Cl)cc3nc2o1	2.7	-0.81
COc1ccc(C(=O)C2CCCN(C(=O)CCNC(C)=O)C2)cc1OC (centres undefined)	1.6	-1.5
SMILES	KCNQ2 enhance	KCNQ2 enhance baseline
Cc1ccc(S(=O)(=O)N2CCOCC2)cc1C(=O)NCc1cccnc1	0.38	-2.3
CCCn1cc2c(c1-c1cccc(C)c1)c(=O)n(C)c(=O)n2C	0.02	0.07
CC1(C)SC(=S)N(c2ccccc2)C1/[N+]([O-])=C/c1cccc([N+](=O)[O-])c1 (centres undefined)	0.16	0.55
CCCCn1c(N)c(Sc2ccc(Cl)cc2)c(=O)[nH]c1=O	0.72	1.3
CC(C)C1Cc2c(sc3[nH]c(=S)n(Cc4ccccc4)c(=O)c23)CO1 (centres undefined)	7.3*	1.3*
Cc1nnc(SCC(=O)O)o1	1	0.27
CC(C)CC(=O)Nc1cccc(C(=O)Nc2ccccc2C(=O)O)c1	0.29	-0.35
COc1ccc2[nH]c(=O)c(CN(CC3CCCO3)C(=S)Nc3ccccc3)cc2c1 (centres undefined)	0.96	0.96
CCOC(=O)c1sc(N2N=C(C)C(N=Nc3cccc(C)c3)C2=O)nc1C (centres undefined)	1.6	0
CCC(=O)Nc1cccc(C2=NOC3(C2)C[C@@H](C(N)=O)N(C(=O)c2ccccc2C(=O)c2ccccc2)C3)c1 (some centres undefined)	0.16	0.57
C/C(=N\Nc1ccc2nncn2n1)c1ccccn1	1	-2.3
COCCCNC(=O)c1cn(C)c(=O)c2cc(OC)c(OC)cc12	0.73	-0.26
O=C(CSc1nnc(Cn2nnc3ccccc32)o1)Nc1ccc(Cl)cc1	0.88	-0.1
Cc1onc(-c2ccccc2)c1C(=O)OCC(=O)NCc1ccc(F)cc1	0.59	1
O=S(=O)(Nc1ccccn1)c1ccc(C2CCCCC2)cc1	0.25	-1
CC(=O)NCC(=O)OCC(=O)N1c2ccccc2Sc2ccccc21	0.98	-0.35
COc1ccc2[nH]c(=O)c(CN(Cc3nnnn3CCc3ccccc3)CC3CCCO3)cc2c1 (centres undefined)	0.1	-1.1
COc1cc(/C=C/c2cccc[n+]2C)ccc1OCC(=O)Nc1ccccc1C	0.76	-1.9
O=C(Cc1cccs1)NCCc1ccc(Cl)cc1	1.8	0.86
O=c1[nH]c2ccccc2n1C1=CCNCC1	0.87	-0.08
CCOC(=O)C1CCN(C(=O)Cc2c(C(=O)O)n(C)c3ccccc23)CC1	0.74	-0.61
COc1ccc(NC(=O)c2cc3c(s2)CCC3)cc1S(=O)(=O)N1CCOCC1	0.33	-0.01
CCOCC(O)CNc1ccccc1 (centres undefined)	0.02	-0.94

An excerpt of these results, in markdown:
| molecule | KCNQ2 enhance | KCNQ2 enhance baseline |
| --- | --- | --- |
| CCC(=O)Nc1cccc(C2=NOC3(C2)C[C@@H](C(N)=O)N(C(=O)c2ccccc2C(=O)c2ccccc2)C3)c1 (some centres undefined) | 0.16 | 0.57 |
| C/C(=N\Nc1ccc2nncn2n1)c1ccccn1 | 1 | -2.3 |
